Assay outcomes as filed in PubChem.
Rango complex inh: qHTS Assay for Inhibitors of Rango (Ran-regulated importin-beta cargo) - Importin beta complex formation; Importin subunit beta-1 (Homo sapiens), Q14974; Rango CFP/YFP FRET sensor + importin beta, 45 min; Potency, µM (top dose mostly 92.2 µM), without a hit: top-dose inhibition of complex formation; hit rate 0.031% among 340,000; AID 540263, 2011; active = rising FRET ratio curve, often small or poorly fitted; inconclusive = mostly compound fluorescence or quenching in the first reads; inactive = flat curves in all reads;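 note: potency is the fitted concentration of half-maximal effect; 0% = DMSO wells and 100% = buffer wells lacking importin beta; nearly all actives have a fitted effect of over 15% in size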
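FRET biosensor (snurportin 1 IBB flanked by EYFP and cerulean), 50 nM, with compound 5 min, then 0.125 microM importin beta in PBS, 1 mM DTT, 0.02% Tween-20, 0.1% BSA. CFP/YFP ratio read after 45 min at room temperature; pre-read flags interference.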
Rango dissoc inh: qHTS Assay for Inhibitors of RanGTP induced Rango (Ran-regulated importin-beta cargo) - Importin beta complex dissociation; Snurportin-1 (Homo sapiens) + GTP-binding nuclear protein Ran (Homo sapiens) + Importin …; Biochemical FRET Rango-importin beta, RanGTP-induced dissociation; Potency, µM (doses to about 46.1 µM), for the others: at the highest dose activity change, negative = inhibition; hit rate 0.071% among 340,000; AID 540253, 2011; active means falling FRET ratio curve, often poorly fitted, with flat reads before Ran was added; inconclusive means other falling curves, or compound fluorescence or quenching; inactive means flat or rising ratio curve;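 note: potency is the fitted concentration of half-maximal effect; % of control where 0% means no effect; nearly all actives have a fitted effect of over 45% in size; -100% = wells without RanGTP and RCC1; the record marks most hits as doubtful in a second field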
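Recombinant Rango FRET biosensor (EYFP–snurportin 1 IBB–cerulean CFP10) at 0.1 uM premixed with 0.25 uM importin beta in PBS, 1 mM DTT, 0.02% Tween-20, 0.1% BSA. Compound added 5 min; RanGTP-RCC1 (0.6 uM Ran, 2 mM GTP, 0.2 uM RCC1) then triggers release, read at 45 min.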
GLA inh pH 4.5: qHTS Assay for Inhibitors of Human alpha-Galactosidase at pH 4.5; 230,000 tested, under 10 active; AID 1467, 2008; purified enzyme, 4-MU-alpha-Gal fluorescence, pH 4.5; Alpha-galactosidase A (Homo sapiens), P06280; activity change, negative = inhibition, % at 105 µM; inconclusive = small, poorly fitted or top-dose-only inhibition, or a rising curve; inactive = flat fitted curve, though single readings scatter; no compound was filed as active;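 note: 0% = full activity with enzyme and -100% = basal without enzyme; dose as in the result columns while the protocol names 77 µM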
Target sequence (P06280 whole entry, looked up): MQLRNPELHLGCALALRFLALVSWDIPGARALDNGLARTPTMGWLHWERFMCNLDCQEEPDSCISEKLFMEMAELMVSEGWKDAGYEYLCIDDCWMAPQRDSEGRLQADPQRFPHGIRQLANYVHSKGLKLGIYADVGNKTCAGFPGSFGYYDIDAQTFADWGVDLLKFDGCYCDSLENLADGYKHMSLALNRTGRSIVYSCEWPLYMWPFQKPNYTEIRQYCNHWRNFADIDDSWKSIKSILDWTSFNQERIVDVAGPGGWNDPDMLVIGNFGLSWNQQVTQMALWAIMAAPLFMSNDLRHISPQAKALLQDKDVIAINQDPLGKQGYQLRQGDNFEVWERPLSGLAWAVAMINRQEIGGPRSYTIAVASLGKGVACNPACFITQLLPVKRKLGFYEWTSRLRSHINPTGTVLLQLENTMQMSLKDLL
miR-21 reporter: qHTS Assay for Modulators of miRNAs and/orActivators of miR-21; HeLa miR-21 FLuc reporter, luciferase, 48 h; Potency, µM (top dose mostly 38.3 µM), for the others: at the top dose reporter change, positive = more light; 340,000 tested, under 10 active; AID 2288, 2010; active = well fitted rising curve with a large enough effect; inconclusive = small, poorly fitted or top-dose-only effect; inactive = no such curve, though single readings can be large or run the other way;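 note: % of control where 0% means no effect; miR-21 action dims this reporter so a rising signal means less miR-21 action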
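Compounds were titrated across several concentrations (up to approximately 40 uM) and incubated 48 hours with HeLa miR-21-FLuc reporter cells (miR-21 target sequence downstream of FLuc, endogenous miR-21). Readout was firefly luciferase luminescence after lytic detection reagent.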
* marks the source's active call; other numbers are inactive results; ? = inconclusive; · = no result given; & = joins results of further samples.

SMILES	Rango complex inh	Rango dissoc inh	GLA inh pH 4.5	miR-21 reporter
Cc1cc(C)c(C)c(OCCN2CCOCC2)c1	0.8%	0%	·	-4%
O=C(NCCc1ccccc1)[C@@H]1CC=C[C@@H]2CCN(Cc3ccc(Cl)c(Cl)c3)C(=O)[C@@H]21	0.0%	-8%	·	·
CCCOc1ccc(C(=O)NCC(C)(C)N2CCOCC2)cc1	-4.9%	-2%	-1	-4%
C=CCNC(=S)NCC1COc2ccccc2O1 (stereo not given)	0.6%	-5%	2	-6%
COC(CNc1ccc([N+](=O)[O-])c(NCC(OC)OC)c1C#N)OC	-2.4%	1%	-6	-1%
O=C(CSc1ncccn1)N1CCC(Cc2ccccc2)CC1	-3.9%	9%	1	-9%
CN1C(=O)CSC1=NC12CC3CC(CC(C3)C1)C2	0.6%	1%	-6	-1%
NC(=O)C1CCN(c2nc(-c3ccccc3)nc3c2oc2ccccc23)CC1	2.1%	0%	4	0%
Cc1ccc(CNC2CCCCC2)s1	3.2%	19%	·	-3%
Cn1c(SC/C=C/c2ccccc2)nnc1-c1cnccn1	3.0%	2%	0	-13%
CCN1C[C@@H]2[C@@H]3C(=O)N(C)C(=O)[C@@H]3[C@](Cc3ccccc3)(C(=O)OC)N2C1=NC1CCCCC1	3.9%	-2%	·	·
Cc1cc(C)nc(SCCC(=O)Nc2ccc(F)cc2)n1	1.2%	17%	-2	-13%
CC(=O)Nc1ccc(Nc2ccc3nonc3c2[N+](=O)[O-])cc1	0.5%	4%	-7	1%
COc1ccccc1-n1nnnc1SCC(=O)Nc1ccccn1	3.1%	1%	-1	1%
COc1ccc(N2CCN(C(=O)Cn3c(=O)[nH]c4ccccc4c3=O)CC2)cc1	·	·	-2	0%
COc1cc(OC)cc(C(=O)NCCSCc2ccc(Cl)cc2)c1	-1.5%	9%	·	2%
O=C(Nc1cccc(-n2cnnn2)c1)c1cccc(Cl)c1	-0.5%	-8%	·	7%
COc1cc2c(cc1OC)CN(C(=O)CCCN1C(=O)c3ccccc3C1=O)CC2	-4.4%	-22%	5	-11%
COc1cccc(C(=O)NN2CCOCC2)c1	0.0%	-5%	·	·
CC(=O)Nc1ccc2c(CSc3nnc(-c4cccnc4)n3-c3ccc(C)cc3C)cc(=O)oc2c1	-0.3%	3%	-6	-3%
CCC(=O)N1c2ccccc2[C@@H](N(C(C)=O)c2ccccc2)C[C@H]1C	-0.3%	6%	-6	-15%
COCCNc1c(-c2ccc(O)cc2)nc2ccc(Cl)cn12	?	?	-1	-28%
CCOC(=O)[C@@H](C)N(C(=O)OC(C)(C)C)S(=O)(=O)N(Cc1ccccc1)[C@H](C(=O)OC)C(C)C	?	-16%	·	·
CCCCOc1ccc(-c2ncc([N+](=O)[O-])cn2)cc1	-2.6%	23%	-6	-7%
CNc1c(NS(=O)(=O)c2ccc(OC)c(Cl)c2)c(=O)oc2ccccc12	2.6%	3%	·	-3%

Going on with the list:
SMILES	Rango complex inh	Rango dissoc inh	GLA inh pH 4.5	miR-21 reporter
C=CCn1c(=O)c(C(=O)NCCNCC)c(O)c2ccccc21	?	8%	-9	-1%
COc1ccc2cc(CCC(C)=O)ccc2c1	-3.0%	-6%	4&0&3	-48%
CCC(C)[C@H](NC(=O)N1CCCC1)C(=O)O (stereo not given in full)	3.5%	-5%	3	0%
CCOC(=O)N1CCC(N2Cc3cccc(C(=O)Nc4ccc(OC)c(OC)c4)c3C2=O)CC1	-0.1%	-2%	2	0%
COc1ccc(CCNC(=S)Nc2cccc(C)c2)cc1	3.5%	5%	-5	-7%
O=C(O)c1cc(S(=O)(=O)NC(Cc2c[nH]c3ccccc23)C(=O)O)ccc1Cl (stereo not given)	0.1%	18%	·	4%
CCN(CC)S(=O)(=O)c1ccc(NC(=O)COC(=O)CNC(=O)C2CCCCC2)cc1	3.1%	16%	·	·
NS(=O)(=O)c1ccc(N2CCN(S(=O)(=O)Cc3ccccc3)CC2)nc1	0.2%	16%	·	·
COc1ccccc1N1C(=O)C2CC=CC(C)C2C1=O (stereo not given)	?	-16%	10	-2%
CC(=O)Nc1ccc(S(=O)(=O)Nc2cc(Cl)ccc2N2CCOCC2)cc1	1.6%	-9%	·	·
CSC(=O)CC(=O)NC(=O)c1ccccc1	-3.7%	-8%	4	2%
CC(C)=CCc1c(O)c(CC=C(C)C)c2occ(-c3ccc(O)cc3)c(=O)c2c1O	0.4%	3%	-12	18%
O=C(Nc1c(C(=O)N2CCOCC2)cnn1-c1ccccc1)c1ccccc1	2.0%	5%	4	0%
O=C(CCN1C(=O)[C@@H]2Cc3ccccc3CN2C1=O)N[C@@H](Cc1ccccc1)C(=O)O	-1.7%	0%	·	0%
Cc1nc(-c2cccc(-c3noc(C)n3)c2)no1	-1.1%	-5%	4	-13%
COC(=O)Cc1csc(NC(=O)c2ccc3ncsc3c2)n1	?	-18%	·	·
CSc1ccc(/C=N/NC(=O)c2ccccc2Cl)cc1	-0.1%	-13%	-1	-19%
OC1CCCC1NCc1ccnc2cc(Cl)ccc12 (stereo not given)	-1.8%	1%	·	·
COc1ccc(S(=O)(=O)N2CCCCCC2)cc1NS(=O)(=O)c1cc(C(=O)O)cc(C)c1C	3.9%	5%	·	·
CC(=O)Nc1ccc(S(=O)(=O)N2CCC3(CC2)CC(=O)c2ccccc2O3)cc1	2.0%	3%	·	·
COc1cc([N+](=O)[O-])cc([N+](=O)[O-])c1NC(=O)N1CCOCC1	-2.0%	2%	·	0%
CC(=O)NN1C(=O)/C(=C\c2ccc(Br)o2)SC1=S	27%	-4%	-2	0%
O=C(NN=Cc1ccccc1Cl)c1ccc(-n2cnnn2)cc1	-2.7%	-1%	·	·
O=C(COC(=O)C1(c2ccc(F)cc2)CCCC1)N1CCOCC1	6.0%	-1%	-6	-9%
Nc1ccc[n+](Cc2ccccn2)c1	-4.3%	-3%	0	-2%

Arranged by value in Rango dissoc inh (high to low): some entries from above.
SMILES	Rango complex inh	Rango dissoc inh	GLA inh pH 4.5	miR-21 reporter
C=CCn1c(=O)c(C(=O)NCCNCC)c(O)c2ccccc21	?	8%	-9	-1%
COc1ccc(CCNC(=S)Nc2cccc(C)c2)cc1	3.5%	5%	-5	-7%
CC(=O)NN1C(=O)/C(=C\c2ccc(Br)o2)SC1=S	27%	-4%	-2	0%
CCC(C)[C@H](NC(=O)N1CCCC1)C(=O)O (stereo not given in full)	3.5%	-5%	3	0%
CSC(=O)CC(=O)NC(=O)c1ccccc1	-3.7%	-8%	4	2%
CC(=O)Nc1ccc(S(=O)(=O)Nc2cc(Cl)ccc2N2CCOCC2)cc1	1.6%	-9%	·	·

Next part
SMILES	Rango complex inh	Rango dissoc inh	GLA inh pH 4.5	miR-21 reporter
CCCCn1c(CNC(=O)c2cccs2)nc2ccccc21	5.3%	-22%	-18	-4%
COc1cc(NC(=O)COc2ccccc2Cl)ccc1NC(=O)c1cccs1	6.4%	46%	·	-17%
COCCNC(=O)c1ccccc1NC(=O)c1ccc(Cl)c(S(=O)(=O)Nc2ccc(C)cc2C)c1	0.1%	2%	-7	6%
Cc1ccc(CN2CCN(CC(=O)N=Nc3c(O)[nH]c4ccccc34)CC2)cc1	-0.5%	-4%	12	0%
CCCCCn1c(CN2CCN(C(=O)OCC)CC2)nc2c1c(=O)n(C)c(=O)n2C	-4.4%	16%	·	·
O=C(CN(c1ccccc1)S(=O)(=O)c1ccccc1)NCCSCc1ccco1	8.7%	-11%	4	-2%
COC(=O)c1c(NC(=O)CSc2ncn[nH]2)sc(C)c1C	-0.1%	9%	·	·
COC(=O)c1cc2ccsc2n1CC(=O)NCC1CCCO1 (stereo not given)	3.8%	-14%	1	-10%
Cc1ccc(S(=O)(=O)N2CCN(C(=O)CSc3nccn3C)CC2)cc1	4.7%	2%	-6	-1%
COc1ccc(C(=O)Nc2ccc(NC(=O)CSc3nnc(-c4ccncc4)n3C)cc2)cc1	-1.5%	20%	·	-7%
Cc1ccc(O)c(C(=O)c2cc(C#N)c(=O)n(-c3c(C)n(C)n(-c4ccccc4)c3=O)c2)c1	?	?	-5	-10%
Cn1nc(C(=O)OCCN2C(=O)c3ccccc3C2=O)c2ccccc2c1=O	6.4%	-1%	1	-1%
On1c(-c2ccccc2)nc2ncccc21	4.1%	-12%	·	0%
O=c1[nH]cc(S(=O)(=O)c2ccccc2)[nH]1	3.3%	17%	-5	0%
Cc1ccc(S(=O)(=O)n2cc(C=O)c3ccccc32)cc1	0.9%	-10%	0	18%
CCc1nnc(NC(=O)C2CCCN2C(=O)Nc2ccccc2OC)s1 (stereo not given)	4.1%	0%	13	-3%
CCCC(=O)C1=C(N2CCCCC2)CC(C)(C)C(C(=O)OC)C1=O (stereo not given)	0.9%	-14%	-13	0%
O=C(COCc1cc(-c2ccc3c(c2)OCO3)on1)N1CCN(c2cccc(C(F)(F)F)c2)CC1	-4.7%	-10%	·	-8%&15%
Cc1ccc(CN2CCN(/N=C/c3cc(Br)ccc3F)CC2)cc1	-6.2%	0%	·	7%
Cc1ccc2nc(SCC(=O)N3CCC(C)CC3)nc(=O)n2c1	-0.3%	-13%	·	·
O=C(CNC(=O)c1cccc(OC(F)F)c1)OCc1cc(=O)n2cc(Br)ccc2n1	-7.0%	19%	4	0%
CCOc1cc(N2CCOCC2)c(OCC)cc1NC(=O)C1=NN(c2cccc(C)c2)C(=O)CC1	-0.6%	-10%	0	-5%
COc1ccc(C(=O)COC(=O)C(C(C)C)N2C(=O)C3C4C=CC(C4)C3C2=O)cc1 (stereo not given)	3.2%	-1%	-1	0%
COC(=O)[C@H](CCSC)NC(=O)NCc1cccs1	1.0%	1%	2	-2%
Cc1csc(NC(=O)c2ccc(S(=O)(=O)N3CCCC3)cc2)n1	-4.8%	29%	1	-10%

(next part)
SMILES	Rango complex inh	Rango dissoc inh	GLA inh pH 4.5	miR-21 reporter
Cc1ccc(Cn2ccc(NC(=O)c3noc4c3CCc3ccccc3-4)n2)cc1	6.7%	-3%	-3	0%
Cc1cccc2nc3ccccc3cc12	?	-15%	·	·
Cc1nnc(SC(C)C(=O)NC2CCCc3ccccc32)n1-c1ccccc1 (stereo not given)	1.5%	2%	-6	-1%
C#CCCOC(=O)N1C2=NC(C(=O)OC)=C(C(=O)OC)[C@@H]3Nc4ccccc4[C@]23C[C@H]1C(=O)OC	1.2%	17%	3	·
CCOC(=O)c1nn(-c2ccc(C)c(C)c2)c(=O)c2c(N)scc12	-0.5%	6%	-1	18%
COc1cc(NC(C)=O)c2ncccc2c1NC(C)=O	-1.6%	-6%	1	6%
COc1ccc(Br)c(-c2nc(CS(=O)(=O)c3ccc(F)cc3)no2)c1	2.9%	7%	-12	-24%
CN1CCN(C(=O)/C(C#N)=C/c2ccc(OC(F)F)cc2)CC1	?	-8%	9	-1%
Cc1noc(C)c1-c1ccc2nc[nH]c(=O)c2c1	0.9%	1%	·	·
COc1cc2c(cc1OC)CN(C(=O)c1cc(Cl)nc(Cl)c1)CC2	3.5%	-15%	·	-3%
O=C(Nc1cccnc1)c1ccc(COc2ccccc2Br)cc1	-1.4%	0%	·	3%

Record cards, from the list above:
Entry for `COc1cc(NC(C)=O)c2ncccc2c1NC(C)=O` → Rango complex inh: -1.6%; Rango dissoc inh: -6%; GLA inh pH 4.5: 1; miR-21 reporter: 6%
Entry for `NS(=O)(=O)c1ccc(N2CCN(S(=O)(=O)Cc3ccccc3)CC2)nc1` → Rango complex inh: 0.2%; Rango dissoc inh: 16%; GLA inh pH 4.5: ·; miR-21 reporter: ·
Entry for `CCOC(=O)N1CCC(N2Cc3cccc(C(=O)Nc4ccc(OC)c(OC)c4)c3C2=O)CC1` → Rango complex inh: -0.1%; Rango dissoc inh: -2%; GLA inh pH 4.5: 2; miR-21 reporter: 0%

A portion of the library; rates above refer to the full screens.
